Vaccinia pol inh = blocks vaccinia virus processive DNA synthesis; in vitro processive DNA synthesis, absorbance read-out; active compounds read low; some inactives read as strong as hits; normalized absorbance, % (test concentration not listed); 46,000 tested, 0.94% active;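 active = replicate mean up to 90% and picked by the depositor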;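 note: 100% = median of the test wells of a plate; 100 nL library stock went into each well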
Numbers without * were called inactive; & = joins results of further samples.

SMILES	Vaccinia pol inh
COc1ccccc1/C=C1/Sc2ccc(C(=O)N3CCN(c4ncccn4)CC3)cc2N(C)C1=O	106
O=C(CCn1c(=S)oc2ccccc21)Nc1cccc(O)c1	101
C=CCc1ccccc1OCC(O)Cn1cnc2ccccc21 (stereo unspecified)	100
CCOc1ccc(Cl)cc1S(=O)(=O)N1CCOCC1	104
CC1C2CC(C(S(=O)(=O)N3CCOCC3)/C2=N/O)C1(C)C (stereo unspecified)	99
CN1CCc2cccc3c2C1Cc1ccc(O)c(O)c1-3 (stereo unspecified)	100
COc1ccc2cc(CCNC(=O)COc3ccc4ccccc4c3)c(=O)[nH]c2c1	93
Cc1nccc(-c2cccc(NC(=O)Nc3ccccc3)c2)n1	111
Cc1nn(Cc2ccccc2)c(C)c1NC(=O)c1noc2c1CCc1ccccc1-2	101
CN(C)c1nc(-c2ccccc2)[n+](C)s1	108&100
Cc1ccc(C)n1CCN1CCNCC1	106
Cc1nn(-c2cccc(Cl)c2)c2c1C(=O)C1C(=O)CCCC1N2 (stereo unspecified)	99
O=C(/C=C/c1ccccc1)NCCCN1CCOCC1	100
N/C(CC(=O)Nc1ccc(Cl)cc1)=N/O	99
COc1ccc2c(c1)c(CC(=O)N1CCOCC1)c(C)n2C(=O)c1ccc(Cl)cc1	101
C=CCNC(=O)CN1N=C(c2ccccc2)CCC1=O	111
O=C(C1=CCN(S(=O)(=O)c2ccccc2)CC1)N1CCCCC1	103
Cn1c(SCC(N)=O)nc2ccccc21	102
Cc1ccc(-c2c(C(=O)NCCc3cccc(C)c3)oc(=O)c3ccccc23)cc1	101
Cc1nn(C(=O)COc2ccc(Cl)cc2Cl)c(N)c1-c1ccccc1	100
CCCCCCCCCCCCC[N+](C)(C)Cc1ccccc1	100
COc1ccc(C2C3C(=O)N(C(C)C)C(=O)C3ON2c2ccc(Cl)cc2)cc1 (stereo unspecified)	101
O=C(NCCc1ccccc1)C1CCCN1S(=O)(=O)c1cccc2nsnc12 (stereo unspecified)	104
O=C(Cn1c(=O)c2cccn2c2ccccc21)N1CCCCC1	99
COc1ccc(N2CCC(CNS(=O)(=O)c3cccc(C(F)(F)F)c3)C2)cc1 (stereo unspecified)	90

19 compounds already listed, ordered by SMILES length, ascending:
SMILES	Vaccinia pol inh
Cc1ccc(C)n1CCN1CCNCC1	106
Cn1c(SCC(N)=O)nc2ccccc21	102
N/C(CC(=O)Nc1ccc(Cl)cc1)=N/O	99
CN(C)c1nc(-c2ccccc2)[n+](C)s1	108&100
O=C(/C=C/c1ccccc1)NCCCN1CCOCC1	100
C=CCNC(=O)CN1N=C(c2ccccc2)CCC1=O	111
CN1CCc2cccc3c2C1Cc1ccc(O)c(O)c1-3 (stereo unspecified)	100
O=C(CCn1c(=S)oc2ccccc21)Nc1cccc(O)c1	101
Cc1nccc(-c2cccc(NC(=O)Nc3ccccc3)c2)n1	111
O=C(C1=CCN(S(=O)(=O)c2ccccc2)CC1)N1CCCCC1	103
CC1C2CC(C(S(=O)(=O)N3CCOCC3)/C2=N/O)C1(C)C (stereo unspecified)	99
Cc1nn(-c2cccc(Cl)c2)c2c1C(=O)C1C(=O)CCCC1N2 (stereo unspecified)	99
O=C(NCCc1ccccc1)C1CCCN1S(=O)(=O)c1cccc2nsnc12 (stereo unspecified)	104
Cc1nn(Cc2ccccc2)c(C)c1NC(=O)c1noc2c1CCc1ccccc1-2	101
COc1ccc2cc(CCNC(=O)COc3ccc4ccccc4c3)c(=O)[nH]c2c1	93
COc1ccc(N2CCC(CNS(=O)(=O)c3cccc(C(F)(F)F)c3)C2)cc1 (stereo unspecified)	90
Cc1ccc(-c2c(C(=O)NCCc3cccc(C)c3)oc(=O)c3ccccc23)cc1	101
COc1ccc2c(c1)c(CC(=O)N1CCOCC1)c(C)n2C(=O)c1ccc(Cl)cc1	101
COc1ccccc1/C=C1/Sc2ccc(C(=O)N3CCN(c4ncccn4)CC3)cc2N(C)C1=O	106

(continued)
SMILES	Vaccinia pol inh
c1cncc(-c2nc3ccc4ccccc4c3c3c2CCCC3)c1	100
CCc1ccccc1-n1c(SCc2cc(=O)n3ccccc3n2)nc2[nH]ncc2c1=O	98
CC1CCCCN1CCCNC(=O)Cn1cccc1C(=O)c1ccccc1 (stereo unspecified)	102
O=C(CCCC(=O)c1ccccc1)Nc1ccc(Cl)cn1	100
COc1ccc(-c2noc(N(C)CC(=O)Nc3cccc(OC)c3)n2)cc1	101
CCCCC1CCC(C(=O)Nc2noc3ccccc23)CC1 (stereo unspecified)	99
CC1CN(Cc2ccc(C#N)cc2Cl)CC(C)O1 (stereo unspecified)	101
Cc1ccc(-n2c3c(cc(C(=O)NC4CCSC4=O)c2=O)C(=O)CCC3)cc1 (stereo unspecified)	100
C(=C/c1ccccc1)/CN1CCN(Cn2nnc3ccccc32)CC1	99
Cc1ccc(-n2c(=O)[nH]cc(C(=O)N3CCc4ccccc43)c2=O)cc1	103
CC(C)C1Cc2c(sc3nc(SCC(=O)Nc4ccccc4)nc(N)c23)CO1 (stereo unspecified)	100
CCOC(=O)N1CCC(NS(=O)(=O)c2ccc3oc(=O)c4ncn(CC)c4c3c2)CC1	85
CCOC(=O)C1CCC(CNCc2ccc(OC)cc2)CC1 (stereo unspecified)	93
COC(=O)C1=C(N)Oc2cc(C)oc(=O)c2C1c1cccnc1 (stereo unspecified)	95
CCNc1nc(SCc2ccc(Cl)cc2)nc2sc3c(c12)CCN(C)C3	53*
COc1ccc(S(=O)(=O)N(C)C)cc1	100
CCCC(=O)Nc1cc(C(=O)O)ccc1S(=O)(=O)c1ccc(Cl)cc1	98
Cc1nc(-c2ccccc2)nc(OC(=O)N(C)C)c1Oc1ccc(Cl)cc1Cl	101
Clc1ccc(CSCc2nc3ccccc3[nH]2)cc1	103
c1ccn2cc(-c3ccc4c(c3)OCCO4)cc2c1	104
CC(C)NC(=O)CCCn1c(=O)c2cccn2c2ccccc21	89
CCOc1ccc(-n2c(SCC(=O)NCc3ccco3)nc3c(c2=O)SCC3)cc1	105
CC1(c2ccccc2)CC(n2c3ccccc3c3ccccc32)=NC(SCC(=O)O)=N1 (stereo unspecified)	102
Cc1sc2ncnc(SCc3ccco3)c2c1C	101
CC(=O)Nc1ccc2c(c1)CN(Cc1ccc(Cl)cc1)CO2	105
Further entries.
SMILES	Vaccinia pol inh
COc1cc2c(C(=O)NCCCN3CCN(C)CC3)cn(CC(C)C)c(=O)c2cc1OC	97
COC(=O)c1ccc(N2C(=O)/C(=C\c3cccnc3)SC2=S)cc1	98
COc1ccc(CNCc2ccncc2)cc1	103
CCOC(=O)Cc1c(C)nc2c(-c3ccccc3)cnn2c1C	99
NC(=S)COc1ccccc1	100
CCOC(=O)N1CCN(CC(O)c2ccc3c(c2)CCN3C(C)=O)CC1 (stereo unspecified)	100
CN1CCN(C(=O)c2ccc(-c3ccc(Br)cc3)o2)CC1	98
FC(F)(F)c1cc(-c2noc(C3CCc4ccccc4O3)n2)cc(C(F)(F)F)c1 (stereo unspecified)	102
CC(=O)OC(C)C1CCC2C3CC[C@H]4CC(=O)CCC4(C)C3CCC12C (stereo partly specified)	98
COCC(=O)Nc1cc(Sc2ccccc2)ccc1N=C(NC(C)=O)NC(C)=O	99
Cc1ccc(C(=O)N(C)S(=O)(=O)c2ccc(C)cc2)cc1	104
Cc1ccc(NC(=O)CSc2nc3ncnc(N)c3[nH]2)c(C)c1	109
CCOC(=O)Cn1c(=O)c(-c2ccccc2N)nc2ccccc21	96
CCn1c2ccccc2c2cc(CN3CCC(N4CCCCC4)CC3)ccc21	89
O=C(/C=C/c1cccc(C(F)(F)F)c1)OCC(=O)c1ccc(Cl)s1	97
Oc1ccccc1C1=NC(c2ccc(F)cc2)NC(c2cccnc2)C1 (stereo unspecified)	106
CCCCN(Cc1ccco1)C(=O)c1cc2c(s1)-c1ccccc1OC2	95
CCOC(=O)c1ccc(NC(=O)c2oc3c(c2C)-c2nn(Cc4ccc(C)cc4)cc2CC3)cc1	103
Cc1nc(C(F)(F)F)ccc1C(=O)O	112
CSc1ncc(Cl)c(C(=O)NCCc2ccc(S(N)(=O)=O)cc2)n1	103
COc1ccc(C(=O)Nc2sccc2C(N)=O)c(OC)c1	71
COc1ccc2c(ccc[n+]2[O-])c1	101
CCOC(=O)CSC1=NC(=O)/C(=C\c2ccc(Cl)cc2)S1	100
Cc1cc(C)c(S(=O)(=O)N(C)C)c(C)c1	99
Cc1cccc(C(=O)NCC(=O)OCc2cccc(C(F)(F)F)c2)c1	100
Going on with the list.
SMILES	Vaccinia pol inh
COc1ccc2c(-c3ccccc3)cc(=O)oc2c1	99
CCC1Sc2cc(S(=O)(=O)N3CCCc4ccccc43)ccc2NC1=O (stereo unspecified)	90
CN(C(=O)C(C)(C)C)c1ccc(OCC(=O)N2CCCc3ccccc32)cc1	104
Cc1cccc(NC(=O)Cn2cnc3c(oc4ccccc43)c2=O)c1	101
Cn1c(=O)[nH]c(=O)c2c1ncn2CCCNC1=NCCCC1	101
CN1CN=C(SCc2ccc(C#N)cc2)NC1	84
COc1ccc(C(=O)Nc2ccc3ncsc3c2)cc1	101
C=CCc1cc(C)ccc1OCC(O)Cn1c(CO)nc2ccccc21 (stereo unspecified)	98
CC(C)(C)c1nnc(SCC(=O)Nc2ccc(Br)cc2)n1N	106
CC(=O)N1C(=O)N(C(C)=O)C(O)C1O (stereo unspecified)	100
CC(C)c1ccc(S(=O)(=O)c2cnc(SCC(=O)Nc3ccccc3)[nH]c2=O)cc1	72
CCOc1ccccc1C=Nc1ccc(OC(F)(F)F)cc1	98
NC(=O)c1ccc(NC(=O)CC23CC4CC(CC(Br)(C4)C2)C3)cc1	102
Clc1ccc(N2CCNCC2)cc1	66
CC1=CC2=C(OC1N(C)C)c1cccc3cccc(c13)C2=O (stereo unspecified)	98
Cc1cccc(Cn2c(SCc3ccc(C(=O)N4CCCCC4)cc3)nc3ccncc32)c1	101
O=C(N1CCCC1)C12CC3CC(CC(Cl)(C3)C1)C2	93
COc1ccc(CNC(=O)Cn2nc(-c3ccccc3)ccc2=O)cc1	80
Nc1nnc(SCC(=O)c2ccccc2)s1	99
CC(c1ccccc1)n1c(SCC(=O)c2csc3ccccc23)n[nH]c1=O (stereo unspecified)	99
CNCC(O)Cn1c2ccccc2c2ccccc21 (stereo unspecified)	78*
S=c1[nH]nc(-c2ccco2)n1Cc1ccccc1	100
CC(=O)N1CCCCC1c1cccnc1.O=[N+]([O-])O.[Ag] (stereo unspecified)	98
COC1(NC(=O)c2ccccc2)C(C)=CC(=O)C=C1C	102
CC1(C)CC(=O)c2cc(OCC(=O)N3CCN(Cc4ccccc4)CC3)ccc2O1	110
(further entries)
SMILES	Vaccinia pol inh
Cn1nc(C(F)(F)F)c(CNc2ccc(Cl)cc2)c1Cl	101
Cc1ccc(N=Cc2c[nH]c3ccccc23)c(C)c1	100
Cc1ccc(C)n1C(CC(=O)O)c1ccsc1 (stereo unspecified)	73*
CC(=O)Oc1ccccc1C(=O)N1CCCc2ccccc21	99
COc1ccc(N=C2C(=O)N3c4c(cc(C)cc42)C(C)=CC3(C)C)cc1	99
CC(C)Cn1c(=O)c2sccc2n2c(CCCC(=O)N(C)Cc3ccco3)nnc12	100
COc1ccc(-c2cc(-c3ccccc3)c(C#N)c(SCS(=O)Cc3ccccc3)n2)cc1 (stereo unspecified)	100
CCCCC[C@H](O)/C=C/[C@@H]1[C@H](C/C=C\CCCC(=O)O)[C@@H](O)C[C@H]1O	100
CS(=O)(=O)Nc1ccc(C2=NN(S(C)(=O)=O)C(c3ccccc3F)C2)cc1 (stereo unspecified)	81
CCOc1ccc2c(=O)c(Oc3ccccc3Br)coc2c1	100
CC(c1ccccc1)n1cnc2ccccc21 (stereo unspecified)	99
COc1nnc(-c2ccc(N3CCOCC3)c(NS(=O)(=O)c3ccc(C)cc3)c2)c2ccccc12	100
Cc1ccc(C)n1CCN1CCN(C(=O)CC#N)CC1	106
CCCCCCCCC#CCC#CCC#CCCCC(=O)O	101
CC(C)NC(=O)c1ccc2c(Cl)c3c(nc2c1)CCCC3	104
COC(=O)c1sc(S(=O)(=O)N2CCN(c3ccccc3OC)CC2)c(C(=O)OC)c1C	100
CNc1nc(-c2ccccc2)nc(-c2ccccc2)c1C#N	100
O=C(Cn1cnc2c(nnn2-c2cccc(Cl)c2)c1=O)OCc1ccccc1	100
COC(=O)c1c(F)c(F)c(Oc2ccc(Cl)cc2)c(F)c1N1CCCCC1	101
Cc1ccccc1NC(=O)OC1CCCCC1	103
Cc1cc(C)nc(N/C(=N/S(=O)(=O)c2ccc(Br)cc2)N2CCC(C)CC2)n1	100
COc1cc2c(cc1OC)N=CCC2	95
O=C(NCCN1CCCCC1)c1ccco1	108
O=c1onc(-c2cccc(Cl)c2)n1-c1ccccc1	98
CC(C)CNC(=O)c1cccc(NC(=O)CC(C)C)c1	98
Further records
SMILES	Vaccinia pol inh
Oc1ccc(-c2nccc(-c3ccccn3)n2)cc1	119
Nc1ccc2nc(CCCc3nc4ccc(N)cc4s3)sc2c1	102
N#Cc1c(NC(=O)c2ccc(Cn3cc(Br)cn3)o2)sc2c1CCCCC2	100
COc1ccc(NC(=O)CCC(=O)c2ccc(OC)cc2)cc1	97
CCCn1c(=O)c2[nH]cnc2n(-c2ccccc2C)c1=O	101
O=c1c2c(nc(SCc3ccccc3)n1-c1ccccc1)CCS2	100
CCc1ccc(C(=O)CC2OC(=O)c3c2ccc(OC)c3OC)cc1 (stereo unspecified)	102
Cc1ccc(S(=O)(=O)N2CCCCC2)cc1C(=O)N1C(C)CCCC1C (stereo unspecified)	99
CCc1ccc(NC(=O)C(C)OC(=O)c2ccncc2)cc1 (stereo unspecified)	89
COC(=O)c1nc(-c2ccc(C)cc2)oc1N1CCOCC1	91
O=C(N/C(=C/c1ccccc1)S(=O)(=O)c1ccccc1)c1ccccc1	100
NNc1ccc(Cl)c(Cl)c1	85
O=C(Nc1ccc(-c2nc3ccccc3s2)c(O)c1)c1ccccc1	100
CC1CC(=O)C2=C(C1)Nc1nc3ccccc3n1C2c1cccs1 (stereo unspecified)	92
CCC(=O)Nc1ccc2c(c1)ncn2C(C)(C)C	100
O=C1NC2=C(CCc3ccccc32)C(c2ccccc2)N1 (stereo unspecified)	99
O=C(c1ccc(Cl)cc1)c1coc2c1cc(O)c1ccccc12	88
Nc1cccc(C(=O)Nc2nccs2)c1	103
O=C(/C=C/c1cccs1)N1CCCC1	99
CC1CCCC(C)N1C(=O)CCN1C(=O)C2C3C=CC(C3)C2C1=O (stereo unspecified)	119

Screening data deposited in PubChem BioAssay by ICCB-Longwood Screening Facility, Harvard Medical School.

A portion of the library. The share of hits here may be higher or lower than overall.
